# Source: PubChem
# PINK1 expr mod: A Quantitative High throughput Screen to Identify Chemical Modulators of PINK1 Expression; PINK1 immunofluorescence, high-content cytometry, 24 h; Potency, µM (series often up to 76.6 µM), inactives show top-dose activation (PINK1 increase), usual class: activators; 0.2% of 410,000 active; AID 624263, 2012; active = well fitted activation curve with a large enough effect; inconclusive = small, poorly fitted or top-dose-only effect; inactive = flat fitted curve, though single readings scatter; cell line not stated here;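 note: potency is the fitted concentration of half-maximal effect; % of control where 0% means no effect; nearly all actives have a fitted effect of over 65% in size; a mitochondrial uncoupler was the plate control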
#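 Decision-based qHTS: stable cells, 24 h exposure to five compound concentrations, CCCP as control. Fixed cells stained for PINK1 plus nuclear, mitochondrial and cell markers, cytometer read.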
# TRPML1 ag: qHTS for Agonists of the Human Mucolipin Transient Receptor Potential 1 (TRPML1); Mucolipin-1 (Homo sapiens), Q9GZU1; TRPML1-expressing cells, Ca2+ dye fluorescence, FDSS; host cell line not named in the record; reference of the full effect not given here; activation, % (test concentration not listed); 0.12% of 410,000 active; AID 624414, 2012; in the data active = activation above about 50%; inconclusive = about 30% to 50%; inactive = below about 30%; note: 0% is about no effect; the text of the record puts the active cut at 80%
#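 Tet-induced TRPML1-DL cells, 1,500 per well, cultured overnight, were loaded with a no-wash Ca2+ dye for 45–90 min. Calcium fluorescence was recorded on the FDSS for 110 s after compound addition, before the EC80 agonist (4 uM 54-4) was added.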
# D2 agonist: Beta-Arrestin HTS for Positive Allosteric Modulators of the Human D2 Dopamine Receptor: Agonists; DiscoveRx PathHunter D2 beta-arrestin, luminescence, 90 min; 100% = 57 uM dopamine signal; activation, % (no concentration beside the values); 0.084% of 360,000 active; D(2) dopamine receptor (Homo sapiens), P14416; in the data active = activation above about 40%; inconclusive = about 15% to 40%; inactive = below about 15%; note: compound concentration not given in the record; the text of the record calls up to 30% inactive
#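 Agonist mode: compounds alone added to overnight-plated D2 PathHunter cells for 90 min at 37 C, with 57 uM final dopamine (EC100) defining full response. Beta-arrestin recruitment detected by chemiluminescent reagent, read after 1 h at ambient temperature.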
# D2 potentiator: Beta-Arrestin HTS for Positive Allosteric Modulators of the Human D2 Dopamine Receptor: Potentiators | 0.23% of 360,000 active | potentiation, % (no concentration beside the values) | DiscoveRx D2 beta-arrestin cells, luminescence, 90 min; 100% = 57 uM dopamine signal; active = potentiation of 50% or more; inconclusive = 30% to 50%; inactive = 30% or less;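 note: compound concentration not given in the record; tested on top of an EC20 dose of dopamine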
#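 D2 cells co-treated with compound plus 50 nM dopamine (EC20) for 90 min at 37 deg C to detect potentiation. Beta-arrestin recruitment was read as enzyme-fragment luminescence after 1 h at ambient temperature. Full response was set by 57 uM dopamine.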
# Six1-Eya2 blk: qHTS Assay for Inhibitors of the Six1/Eya2 Interaction; Homeobox protein SIX1 (Homo sapiens) + Protein phosphatase EYA2 (Homo sapiens), …; AlphaScreen GST-Six1/His-Eya2 binding, biochemical; hits give low values; control for the full effect not named in the record; activity change, % (test concentration not listed); 0.56% of 360,000 active; in the data active = activity change below about -65%; inconclusive = about -30% to -65%; inactive = above about -30%; note: % is set by controls: 0 for no effect and ±100 for the full control effect; compound concentration not given in the record
# Target sequence (O00167 whole entry, looked up): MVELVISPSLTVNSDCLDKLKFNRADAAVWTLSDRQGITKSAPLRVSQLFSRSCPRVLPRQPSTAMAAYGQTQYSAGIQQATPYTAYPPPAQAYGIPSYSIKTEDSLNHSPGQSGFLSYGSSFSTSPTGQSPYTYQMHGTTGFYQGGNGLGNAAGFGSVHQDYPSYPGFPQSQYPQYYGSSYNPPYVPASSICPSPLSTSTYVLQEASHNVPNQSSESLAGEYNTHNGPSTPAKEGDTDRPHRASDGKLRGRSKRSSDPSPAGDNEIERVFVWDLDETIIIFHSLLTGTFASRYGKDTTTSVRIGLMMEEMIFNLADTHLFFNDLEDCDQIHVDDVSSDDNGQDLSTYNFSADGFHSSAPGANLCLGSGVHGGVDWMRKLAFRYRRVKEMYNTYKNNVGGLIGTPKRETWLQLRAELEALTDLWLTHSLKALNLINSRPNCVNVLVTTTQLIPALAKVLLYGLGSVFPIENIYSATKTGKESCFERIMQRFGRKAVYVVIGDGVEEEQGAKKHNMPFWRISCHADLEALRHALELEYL
# Target sequence (Q15475 whole entry, looked up): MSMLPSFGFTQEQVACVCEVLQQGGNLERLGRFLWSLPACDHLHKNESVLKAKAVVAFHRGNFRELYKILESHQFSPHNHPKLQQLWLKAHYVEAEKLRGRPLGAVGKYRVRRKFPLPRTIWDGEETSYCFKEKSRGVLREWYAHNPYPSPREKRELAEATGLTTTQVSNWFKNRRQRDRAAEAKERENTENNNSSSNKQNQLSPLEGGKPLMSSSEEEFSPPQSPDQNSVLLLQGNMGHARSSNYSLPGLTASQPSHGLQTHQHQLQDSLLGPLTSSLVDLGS
#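 AlphaScreen luminescence read after one hour at 37 °C in darkness. Pin-transferred compounds met GST-Six1 and His-Eya2 protein (5X stock 250 nM/500 nM) plus glutathione donor and Ni-chelate acceptor beads (5X, 50 ug/mL).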
# TRPML1 inh: qHTS for Inhibitors of the Human Mucolipin Transient Receptor Potential 1 (TRPML1); Mucolipin-1 (Homo sapiens), Q9GZU1; TRPML1-inducible cells, Ca2+ dye fluorescence, FDSS; hits give low values; inhibition of EC80 agonist-evoked calcium signal; activity change, negative = inhibition, % (concentration not given with the values); 0.02% of 390,000 active; AID 624415, 2012; in the data active means activity change below about -50%; inconclusive means about -30% to -50%; inactive means above about -30%;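 note: stimulus is agonist 54-4 at its EC80 concentration; % is set by controls: 0 for no effect and ±100 for the full control effect; compound concentration not given in the record; the text of the record puts the active cut at -80%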
#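 Tet-induced TRPML1-DL cells loaded with Ca8 no-wash calcium dye were read kinetically on FDSS. Compound addition was followed by EC80 agonist 54-4 (4 uM final); inhibition was read over 110 s.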
# * hit, by the source's call; ? = inconclusive; . = no result given; & = joins results of further samples; [ ] = dose if it differs, or a comment.
SMILES,PINK1 expr mod,TRPML1 ag,D2 agonist,D2 potentiator,Six1-Eya2 blk,TRPML1 inh
Cc1cc(OCC(=O)Nc2ccc(Br)cc2)cc2c1C(=O)CC(C)(C)O2,1.7%,1.7,-2.8,-4,11,-2
Nc1ccn([C@@H]2O[C@H](CNCc3ccc(N4CCNCC4)cc3)[C@@H](O)[C@H]2O)c(=O)n1,0.7%,.,-3.1,.,2,.
c1ccc(-n2cccc2)c(N2CCCCC2)c1,12%,0.0,0.4,-3,1,-1
NC(=O)COC(=O)CC12CC3CC(CC(C3)C1)C2,-2.8%,-1.0,-1.0,-6,3,-9
Cc1ccc(OCCN(C)C(=O)C2CCC(=O)N(CCCN3CCCC3=O)C2)cc1 (configuration not stated),0.6%,-0.5,2.0,-4,4,1
CC(=O)n1c(=O)c2ccccc2c(=O)n1-c1ccccc1,0.6%,-0.8,-0.2,-3,6,-5
CCOC(=O)Cc1csc(NC(=O)COc2ccc(C)c(C)c2)n1,1.5%,1.5,-5.0,7,0,5
Cc1cc2ccccc2c(=O)n1CC(=O)NCC(=O)N1CCN(c2cccc(Cl)c2)CC1,14%,-1.0,-1.8,2,-2,17
COc1ccc(NC(=O)CCS(=O)(=O)c2cccc3nonc23)cc1Cl,10%&0.2%,-0.3&-0.4,?,-2,-19,8&16
CC(=O)Nc1ccc(OC(F)(F)C(F)C(F)(F)F)c(NC(C)=O)c1 (configuration not stated),-1.9%[38.3 µM],-0.3,1.1,-1,8,-6
Cc1ccc(C2(C)NC(=O)N(CC(=O)Nc3ccc(Cl)c(S(=O)(=O)N4CCCCC4)c3)C2=O)cc1 (configuration not stated),2.9%,0.1,2.2,12,-11,1
O=C(CCCOc1ccc(Cl)cc1Cl)Nc1cccnc1,1.2%,-0.5,-1.5,-22,6,-6
CCS(=O)(=O)C1=NSC2=NC(=O)/C(=C\c3ccc(OS(=O)(=O)c4ccccc4)c(OC)c3)C(=N)N21,1.4%,0.4,-0.1,-13,-11,-13
COc1ccc(C(C(=O)NC2CCCCC2)N(C(=O)c2sc(C)nc2C)c2ccccc2C)cc1 (configuration not stated),13%[38.3 µM],3.7,-4.4,-14,-1,7
C=CCn1c(=O)c2c(nc3n2CC(C)CN3Cc2ccccc2)n(C)c1=O (configuration not stated),0.0%,1.5,2.8,-8,-9,9
CCCCOC(=O)Cn1c2ccc(OC)cc2c2nc3ccccc3nc21,12%,1.5,-3.8,4,10,-9
COC(=O)N/N=C/c1cc(Cl)cc(Cl)c1OCc1ccccc1F,7.7%,0.3,2.1,-8,13,2
Cc1nnsc1C(=O)N1CCCC(N2CCN(c3cccc(C(F)(F)F)c3)CC2)C1 (configuration not stated),0.6%,-0.3,0.1,-10,0,30
Cc1cccc(NC(=O)CCc2ccccc2)c1C,-1.6%,0.1,3.5,-3,20,10
COc1ccc(NC(=O)CCN2CCN(CCO)CC2)cc1,0.5%,0.8,.,.,.,14

# 3 of these compounds, set out differently:
SMILES	PINK1 expr mod	TRPML1 ag	D2 agonist	D2 potentiator	Six1-Eya2 blk	TRPML1 inh
CCOC(=O)Cc1csc(NC(=O)COc2ccc(C)c(C)c2)n1	1.5%	1.5	-5.0	7	0	5
CCS(=O)(=O)C1=NSC2=NC(=O)/C(=C\c3ccc(OS(=O)(=O)c4ccccc4)c(OC)c3)C(=N)N21	1.4%	0.4	-0.1	-13	-11	-13
c1ccc(-n2cccc2)c(N2CCCCC2)c1	12%	0.0	0.4	-3	1	-1

# Next part:
SMILES,PINK1 expr mod,TRPML1 ag,D2 agonist,D2 potentiator,Six1-Eya2 blk,TRPML1 inh
N#CC1(C#N)CC(C=O)=C(N)C1(C#N)CC(=O)c1ccc(F)cc1 (configuration not stated),5.9%,9.2,-2.1,-16,-7,-12
O=C(NC1CCC(O)CC1)C1CCN(S(=O)(=O)c2c(Cl)cccc2Cl)CC1 (configuration not stated),1.7%,1.5,-1.7,-3,-26,1
Cc1cc(F)ccc1S(=O)(=O)Nc1ccc(C(=O)N2CCCCC2)cc1,-2.6%,-0.4,0.4,-2,6,-8
CC(C)(C)NC(=O)CN(C(=O)C1CSC(=O)C1)c1ccccc1F (configuration not stated),-1.5%,0.1,-3.5,-6,6,38
N#Cc1cnc(SCC(=O)N2CCCC2)nc1N,0.6%,0.9,-4.4,-15,-8,5
Cc1nc2ccccc2n1Cc1ccc(Cl)cc1,0.4%,0.6,8.2,-9,-2,1
Cc1ccc(S(=O)(=O)NCC2CCC(C(=O)NCCCN3CCC(C)CC3)CC2)cc1 (configuration not stated),1.1%,-0.2,-3.0,-8,1,36
CCCC1=C(C(=O)OCC)C(c2ccco2)n2ncnc2N1 (configuration not stated),-0.1%,0.3,-6.5,-5,0,29
CCOc1ccc(Sc2cc(C(=O)NCc3ccccc3Cl)c3ccccc3n2)cc1,8.5%,1.1,.,.,.,3
COc1ccc(NC(=O)N2CCN(c3ccc([N+](=O)[O-])cc3)CC2)cc1,2.7%,-0.7,-1.1,-1,3,-4
CS(=O)(=O)N1CCN(c2ccc(Cl)cc2[N+](=O)[O-])CC1,-0.7%,2.0,0.9,-17,5,13
COc1ccc(OC)c(-c2csc(-c3c(N)c(C(=O)c4ccccc4)n4ccccc34)n2)c1,2.3%,0.8,.,.,.,-2
CC(C)(C)c1ccc(C(=O)NC(=S)NNC(=O)COc2ccccc2)cc1,3.6%,1.4,7.1,-6,3,20
CCc1ccc2c(c1)NC(=O)C2(C)Cc1ccccc1Cl (configuration not stated),5.5%,-0.6,1.2,-3,6,3
O=C(NNC(=O)c1ccccc1F)c1ccco1,3.2%,-0.2,-0.6,-5,4,18
Cc1ccc(C2c3[nH]c4ccccc4c3CCN2C(=O)c2cccc(C)c2)cc1 (configuration not stated),4.4%,0.0,.,.,.,-4
COc1ccc(NC(=O)CSc2nnc3scc(-c4ccc(Cl)cc4)n23)cc1,1.1%,3.6,.,.,.,-2
COc1ccccc1CN1CCCC(CN(CCN(C)C)C(=O)c2ccc(C)cc2)C1 (configuration not stated),1.2%,-0.4,-4.4,-2,-1,2
COc1ccc(CCNC(=O)c2cc(C)oc2C)cc1,-0.1%,-0.4,-1.6,5,-7,-2
CCOC(=O)c1sc(=NC(=O)CCSc2ccccc2)n(C)c1C,2.2%,0.2,3.7,-6,1,-10

# The list goes on; it opens with the 7 that closed the last part.
SMILES,PINK1 expr mod,TRPML1 ag,D2 agonist,D2 potentiator,Six1-Eya2 blk,TRPML1 inh
CCc1ccc2c(c1)NC(=O)C2(C)Cc1ccccc1Cl (configuration not stated),5.5%,-0.6,1.2,-3,6,3
O=C(NNC(=O)c1ccccc1F)c1ccco1,3.2%,-0.2,-0.6,-5,4,18
Cc1ccc(C2c3[nH]c4ccccc4c3CCN2C(=O)c2cccc(C)c2)cc1 (configuration not stated),4.4%,0.0,.,.,.,-4
COc1ccc(NC(=O)CSc2nnc3scc(-c4ccc(Cl)cc4)n23)cc1,1.1%,3.6,.,.,.,-2
COc1ccccc1CN1CCCC(CN(CCN(C)C)C(=O)c2ccc(C)cc2)C1 (configuration not stated),1.2%,-0.4,-4.4,-2,-1,2
COc1ccc(CCNC(=O)c2cc(C)oc2C)cc1,-0.1%,-0.4,-1.6,5,-7,-2
CCOC(=O)c1sc(=NC(=O)CCSc2ccccc2)n(C)c1C,2.2%,0.2,3.7,-6,1,-10
Cc1cccc(N(CC(=O)NCc2ccco2)C(=O)CCC(=O)Nc2nccs2)c1C,2.6%,0.4,0.8,-9,-11,-4
CNCC/C=C1/c2ccccc2CSc2ccccc21,0.2%,0.2,-0.3,-31,-1,3
CCN(CC)S(=O)(=O)c1cccc(C(=O)N/N=C/c2cc(OC)c(O)c(OC)c2)c1,-0.3%,-0.6,4.2,9,?,0
CC(C)N1C(=O)C2ON(c3ccccc3)C(c3cccs3)C2C1=O (configuration not stated),-0.4%,-0.9,-0.4,-7,4,-10
CC(=O)N(c1ccc(Cl)cc1)c1nc(C)cc(C)c1C#N,0.2%,0.0,-2.2,-2,1,11
Cc1ccccc1OCC(=O)NC(=S)Nc1ccc2c3c(cccc13)CC2,1.9%,0.7,-3.1,-1,7,4
O=C(NCCN1CCNC1=O)C1CCC(=O)N(CCc2ccc(Cl)cc2)C1 (configuration not stated),-0.2%,0.5,2.4,-4,19,-4
CCOc1ccc(NC(=O)CC2C(=O)N(c3ccccc3)C(=O)N2C2CCCCC2)cc1 (configuration not stated),1.5%,-0.3,.,.,.,5
O=C(NC1=NCCS1)c1ccc(C(F)(F)F)cc1,4.9%,.,-3.9,-9,-8,.
FC(F)(F)c1ccccc1Cc1c(-c2cccc(Br)c2)nc2ccc(Br)cn12,13%,0.5,-5.5,-2,1,.
Cn1c(=O)c(=O)n(C)c2cc(S(=O)(=O)N3CCCC3C(=O)Nc3ccccc3F)ccc21 (configuration not stated),0.2%&0.1%,0.4&-0.1,-3.0,-1,-7,10&14
O=C(CN1CCN(Cc2ccccc2)CC1)c1c[nH]c2ccccc12,-2.0%,-0.5,-3.2,-14,-4,-12
Fc1ccccc1/C=N/N1CCN(Cc2ccccc2Cl)CC1,?,-0.3,-1.2,-12,?,-12
CCOC(=O)C1(Cc2ccccc2C(F)(F)F)CCN(CC(O)CO)CC1 (configuration not stated),-1.0%,-0.3,-0.5,-3,4,-3
CCN1CCN(C(=S)Nc2ccc(Cl)cc2Cl)CC1,-1.1%,-0.6,-1.1,-16,-1,-6
COC[C@H]1CCCN1[C@@H]1CS(=O)(=O)N[C@H]1COCc1ccccc1,-1.6%,-1.0,-4.8,-8,7,.
O=C(CN1CCCC1)Nc1cccc(Cl)c1,1.1%,-0.3,-5.5,-31,-1,-9
CCOC(=O)/C=C1\SCC(=O)N1CC(=O)NCc1ccc(OC)c(OC)c1,0.4%,-1.1,-2.2,-5,0,4
CCN(CC)S(=O)(=O)c1ccc2[nH]c(=O)cc(C(=O)N(C)C3CCS(=O)(=O)C3)c2c1 (configuration not stated),0.0%,-0.9,-1.8,5,-2,7
Brc1ccc(-c2nc(N3CCN(c4ccccc4)CC3)c3ccccc3n2)cc1,-0.2%,3.0,.,.,.,-9
Nc1cc2[nH]c(=O)c3ccccc3c2cc1Br,1.4%,0.6,-1.1,-20,-21,7
CCCCN(CC)C(=O)CSc1nc2ccccc2c(=O)n1CC1COc2ccccc2O1 (configuration not stated),.,-0.3,-5.1,-12,-1,-2
C=CCN1C(=O)C(C)(C)N(C(C)=O)c2ccccc21,1.1%,0.1,-3.5,-11,1,13
